Cruzain inh noDet: cruzain (T. cruzi) inhibition without detergent; purified cruzain, Z-FR-AMC fluorescence, no detergent; Potency, µM, for the others: max response, negative = inhibition, hits mostly inhibitors; 200,000 compounds, 2.3% hits;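 note: plate controls were enzyme without inhibitor for no effect and buffer without enzyme for full effect; nearly all actives have a fitted effect of over 40% in size; top concentration of the series not given in the record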
Target sequence (P25779 123-467 limits assumed): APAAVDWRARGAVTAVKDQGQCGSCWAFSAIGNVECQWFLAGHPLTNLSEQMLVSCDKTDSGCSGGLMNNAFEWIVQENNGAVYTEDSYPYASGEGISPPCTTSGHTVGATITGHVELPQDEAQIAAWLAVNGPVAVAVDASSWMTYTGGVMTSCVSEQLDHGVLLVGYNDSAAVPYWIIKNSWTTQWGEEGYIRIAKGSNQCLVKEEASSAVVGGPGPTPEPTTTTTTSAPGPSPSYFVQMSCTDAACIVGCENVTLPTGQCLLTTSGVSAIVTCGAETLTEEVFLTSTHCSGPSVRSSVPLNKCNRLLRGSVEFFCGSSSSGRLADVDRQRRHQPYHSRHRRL
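Purified cruzain at 1.5 nM, pre-incubated 15 min with compound at room temperature in 100 mM sodium acetate pH 5.5, 5 mM DTT, 0.00005% Triton X-100. Reaction started with 2 uM Z-FR-AMC; AMC fluorescence increase over 60 s gives rate.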
NS1 function inh: inhibitors of influenza NS1 protein function; S. cerevisiae slowed by influenza A NS1, growth recovery by OD600; Potency, µM (highest dose often 46.1 µM), for inactives: top-dose activity, positive = more growth; 270,000 compounds, 0.4% hits; active means well fitted rising curve with a large enough effect; inconclusive means small, poorly fitted or top-dose-only effect; inactive means no such curve, though single readings can be large or run the other way; note: nearly all actives have a fitted effect of over 50% in size
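Compounds were scored for reversing the slow growth caused by influenza A NS1 in S. cerevisiae, measured by optical density at 600 nm. Assay medium contained 2% galactose at pH 6.0; NS1-free yeast of the same strain were the positive control.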
2A StopGo: FMDV 2A StopGo reporter, luciferase signal; human cells with a luciferase reporter of 2A StopGo recoding; control for the full effect not named in the record; 410,000 compounds, 1.2% hits; AID 1159524; Potency, µM (titrated, usually from 57.9 µM), inactives show at the top dose signal change, negative = less light; active = well fitted falling curve with a large enough effect; inconclusive = small, poorly fitted or top-dose-only effect; inactive = no such curve, though single readings can be large or run the other way; tested in HEK293T cells; note: % is set by controls: 0 for no effect and ±100 for the full control effect; nearly all actives have a fitted effect of over 45% in size; luciferase light after 4 h
Cruzain inh Det: blocks cruzain activity in presence of Triton detergent. 200,000 compounds, 0.43% hits. Potency, µM, for inactives: max response, negative = inhibition, most hits filed as inhibitors. purified cruzain, Z-FR-AMC fluorescence, 0.01% Triton. P25779;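 note: plate controls were neutral wells for no effect and buffer without enzyme for full effect; nearly all actives have a fitted effect of over 40% in size; top concentration of the series not given in the record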
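Cysteine protease activity tested under reducing, mildly acidic conditions (100 mM sodium acetate pH 5.5, 5 mM DTT) plus 0.01% Triton X-100. Cruzain 1.5 nM; substrate Z-FR-AMC 2 uM; 15 min compound preincubation at room temperature.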
SARS PLpro yeast: inhibitors of SARS-CoV papain-like protease in yeast. 330,000 compounds, 0.19% hits. AID 485353. Potency, µM (doses to about 32.9 µM), inactives show top-dose activity, positive = growth rescue. S. cerevisiae expressing SARS-CoV PLpro, growth rescue; control for the full effect not named in the record; active means well fitted rising curve with a large enough effect; inconclusive means small, poorly fitted or top-dose-only effect; inactive means no such curve, though single readings can be large or run the other way; note: 0% is about no effect; nearly all actives have a fitted effect of over 55% in size; growth read by luminescence after 48 h
Lassa entry inh: inhibitors of Lassa virus binding or cell entry; Lassa virus pseudotype entry inhibition, cell reporter; control for the full effect not named in the record; Potency, µM (titrated, usually from 37.9 µM), for inactives: at the highest dose activity change, negative = inhibition, hits mostly inhibitors; 300,000 compounds, 1.2% hits; AID 540256; active means well fitted inhibition curve with a large enough effect; inconclusive means small, poorly fitted or top-dose-only effect, or effect the other way; inactive means flat fitted curve, though single readings scatter; tested in HEK293 cells; note: % is set by controls: 0 for no effect and ±100 for the full control effect; nearly all actives have a fitted effect of over 50% in size; luciferase read-out
MARV entry inh: Marburg virus entry inhibition. Marburg virus pseudotyped entry inhibition, cell reporter; control for the full effect not named in the record; about a third of the inactives were read at about 46 µM. Potency, µM (titrated, usually from 37.8 µM), for inactives: at the top dose activity change, negative = inhibition, most hits filed as inhibitors. AID 540276. 300,000 compounds, 1.8% hits; active = well fitted inhibition curve with a large enough effect; inconclusive = small, poorly fitted or top-dose-only effect, or effect the other way; inactive = flat fitted curve, though single readings scatter; tested in HEK293 cells; about a fifth of its hits are not listed in these tables; note: % is set by controls: 0 for no effect and ±100 for the full control effect; luciferase read-out
RE007 growth inh: less growth of the S. pombe RE007 Vpr strain. S. pombe RE007 Vpr strain, BacTiter-Glo ATP luminescence, 24 h; control for the full effect not named in the record. 360,000 compounds, 0.21% hits. AID 651644. Potency, µM (top dose mostly 92.2 µM), without a hit: at the top dose activity change, negative = less growth; active = well fitted falling curve with a large enough effect; inconclusive = small, poorly fitted or top-dose-only effect; inactive = no such curve, though single readings can be large or run the other way;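 note: % is set by controls: 0 for no effect and ±100 for the full control effect; nearly all actives have a fitted effect of over 50% in size; the assay follows cell death caused by Vpr and the record does not say whether a fall means rescue or toxicity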
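Fission yeast RE007 carrying one integrated HIV-1 vpr copy, seeded at OD 0.01 in PMG+AL medium with 23 nL pinned compound. Grown 24 h at 30 degrees; viability read by BacTiter-Glo luminescence after 5 min.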
* marks the source's active call; other numbers are inactive results; ? = inconclusive; · = not tested or not shown; & = joins results of further samples; [ ] = another dose, or the depositor's remark. Unless noted, calls come from the whole dose curve; as a rule, active = well fitted curve in the direction sought with a large enough effect; inconclusive = small, poorly fitted or top-dose-only effect, or another doubt; inactive = no such curve, though single readings can be large; an effect the other way counts as inactive or inconclusive. Potency is the fitted concentration of half-maximal effect.

SMILES | Cruzain inh noDet | NS1 function inh | 2A StopGo | Cruzain inh Det | SARS PLpro yeast | Lassa entry inh | MARV entry inh | RE007 growth inh
C=C(C)c1cccc(C(C)(C)NC(=O)NC2CN3CCC2CC3)c1 (stereo not drawn) | 15% | ? | 12% | 3.5% | 1% | 7% | 7% | -4%
Cc1ccc(N2CC(NC(=O)Cc3ccc(F)cc3)CC2=O)cc1C (stereo not drawn) | -3% | · | -5% | 4.0% | · | 10%[46.1 µM] | · | ·
CCc1cccc(NC(=S)N(CCN(C)C)C2CCN(C(C)C)CC2)c1 | · | -7% | -8% | · | 2% | · | · | -13%
COc1ccc(OC)c(S(=O)(=O)NCCCn2ccnc2)c1 | · | 5% | 48%[activator] | · | 28% | · | · | 6%
O=C(COC(=O)c1sc2ccccc2c1Cl)NC1CCCCC1 | ? | -18% | 0% | 2.2% | -16% | 7% | 33% | -7%
Cc1cc(=O)oc2cc(OCC(=O)N3CC[C@@]4(O)CCCC[C@H]4C3)c(Cl)cc12 | · | 0% | -14% | · | -1% | · | · | 5%
CCOC(=O)c1ccc(NC(=O)CSc2nc3ccccc3c(=O)n2CCC(=O)NC2CCCCC2)cc1 | 5% | · | -21% | 1.7% | · | 24%[46.1 µM] | · | ·
COc1cc(OC)c(N(C)S(=O)(=O)c2cccc(C(=O)OCC(=O)N3CCOCC3)c2)cc1Cl | · | · | -11% | · | 2% | -21% | ? | 21%
CC(C)Cc1cc(C(=O)Nc2cccnc2)no1 | -12% | -13% | 40%[activator] | 3.1% | -7% | · | · | -8%
CSc1ncccc1C(=O)Nc1nnc(C2CC2)s1 | · | · | 1% | · | -6% | 8%[46.1 µM] | ? | 5%
Cc1ccc(C(=O)Nc2cccc3[nH]c(C(F)(F)F)nc23)cc1 | · | -3% | -23% | · | -5% | ? | ? | 6%
CCC(=O)NC(Nc1sc2c(c1C(=O)OC)CCC2)C(Cl)(Cl)Cl (stereo not drawn) | -1% | 0% | -12% | -7.1% | -30% | -22% | ? | 4%
CCCC(=O)Nc1cc(C)c(NC(=O)c2ccncc2)cn1 | -2% | 2% | 7% | 4.7% | 2% | 2.8µM* | 3% | -21%
O=C(Nc1cc(C(F)(F)F)ccc1-n1cncn1)c1ccc(-c2ccccc2)cc1 | 0% | 5% | ? | -15% | 1% | -1% | -7% | -17%
COc1ccc(/C=C2\Oc3cc(OCC(=O)N4CC(O)C[C@H]4C(=O)O)ccc3C2=O)cc1OC (stereo partly drawn) | · | 17% | -23% | · | 6% | · | · | -12%

Individual results from above:
Value of Cc1ccc(C(=O)Nc2cccc3[nH]c(C(F)(F)F)nc23)cc1 in RE007 growth inh: 6%
Value of COc1ccc(OC)c(S(=O)(=O)NCCCn2ccnc2)c1 in SARS PLpro yeast: 28%

Next section:
SMILES | Cruzain inh noDet | NS1 function inh | 2A StopGo | Cruzain inh Det | SARS PLpro yeast | Lassa entry inh | MARV entry inh | RE007 growth inh
O=C(NCCCn1ccnc1)Nc1cccc(Cl)c1 | 1% | 1% | 9% | 1.2% | 1% | 1% | -14% | -6%
COc1cc(/C=C/C(=O)OCC(=O)NC2CC2)cc(S(=O)(=O)N2CCc3ccccc32)c1OC | · | -9% | -19% | · | 0% | ? | ? | 1%
Cc1c(Cl)ccc2sc(N3CCN(C(=O)CS(=O)(=O)c4ccccc4)CC3)nc12 | 24% | · | ? | 2.7% | · | -5%[46.1 µM] | · | ·
O=C1c2ccc3c4c(ccc(c24)C(=O)N1NC(=O)C(F)(F)F)CC3 | ? | -93% | · | -3.7% | 1% | 14% | 4% | -13%
CCCCC(=O)NC1=C(C(=O)OC)SCC1 | -2% | 0% | -6% | -4.5% | -5% | -4% | ? | -8%
O=C(COC(=O)c1ccc(O)cc1)Nc1ccccc1-c1ccccc1 | -15% | 13% | ? | -4.9% | -10% | ? | ? | 0%
COc1cccc(OCc2cc(/C=N/Nc3ccc(C(=O)O)cc3)ccc2OC)c1 | · | 5% | 0.89µM* | · | -1% | · | -2% | -6%
Cc1ccc(-c2cc(Cc3ccccc3)c(=O)[nH]n2)cc1 | · | 3% | -9% | · | 0% | 2.5µM* | 1% | 8%
N#C/C(=C/c1ccc(-c2cccc([N+](=O)[O-])c2)o1)C(=O)Nc1nc(-c2cccs2)cs1 | · | · | -17% | · | · | 0%[46.1 µM] | ? | -11%
CCC1Oc2ccccc2C(=O)N(CC(=O)c2ccc3c(c2)OCCO3)C1=O (stereo not drawn) | · | 4% | 9% | · | -9% | 0%[46.1 µM] | ? | 15%
Cc1cc(N2CCN(C(=O)c3ccco3)CC2)n2nc(C)c(-c3ccc(Cl)cc3)c2n1 | ? | -2% | · | 0.4% | -7% | · | 1% | ·
COc1ccc(NC(=O)C2CCC(CNS(=O)(=O)c3cccs3)CC2)cc1 (stereo not drawn) | · | · | -12% | · | 1% | -13%[46.1 µM] | 7%[46.1 µM] | -7%
O=C(/C(C=Nc1cc2c(oc1=O)CCCC2=O)=C(\O)c1ccccc1)c1ccccc1 | · | 1% | 17% | · | -2% | 4% | -4% | -25%
CC(Oc1ccc(Cl)cc1Cl)C(=O)OCn1nnc2ccccc2c1=O (stereo not drawn) | -7% | -128% | 3% | -6.8% | -11% | -10% | 1% | 7%
CCN(CCO)Cc1csc2cc(C)ccc12 | 6% | 15% | -7% | 2.1% | 27% | -1% | 2% | 6%
CCCCOC(=O)c1ccc(NC(=O)C(=O)NCc2ccccn2)cc1 | · | 8% | -27% | · | -2% | 2% | 9% | 7%
CCOC(=O)c1c(/N=C/C2=C(O)CCCC2=O)sc(C)c1C | ? | 21% | -6% | -7.9% | 5% | -5% | 2% | -21%
CCOC(=O)C1CCCN(S(=O)(=O)c2ccc(Cl)nc2)C1 (stereo not drawn) | · | · | -11% | · | 4% | -3% | 9% | -4%
Cc1ccc2nc(SCC(=O)Nc3cc([N+](=O)[O-])ccc3F)[nH]c2c1 | -4% | -2% | -30% | ? | -7% | -1% | -10% | -14%
Cc1[nH]c2ccc(Br)cc2c1CCNC(=O)c1cc2ccccc2oc1=O | -11% | · | -10% | -2.0% | · | 21%[46.1 µM] | 0%[46.1 µM] | ·
CCOC(=O)c1c(C)[nH]c(C)c1C(=O)CSc1nnnn1-c1ccccc1 | 0% | -6% | -19% | -8.7% | -5% | 4% | -6% | -12%
CC(C)CN(C(=O)COC(=O)Cc1n[nH]c(=O)c2ccccc12)C1CCS(=O)(=O)C1 (stereo not drawn) | -8% | 1% | -8% | 2.1% | 3% | 6% | 25%&25% | 6%
COc1cc2c(cc1OC)-c1cc3ccc(OC)c(OC)c3c[n+]1CC2 | -27%&-14% | · | -27%&1% | -15%&-7.4% | · | · | · | -17%[18.4 µM]
CNc1nc(-c2ccc3c(c2)CCN3C(=O)c2ccccc2C)cs1 | · | 12% | 8% | · | -1% | ? | ? | -4%
CCOC1=C/C(=C/c2c(N)n3nc(-c4ccccc4)sc3nc2=O)C=CC1=O | · | 13% | -18% | · | -1% | ? | ? | 11%
CCc1nnc(NC(=O)c2cccs2)s1 | -8% | -93% | 47%[activator] | -3.1% | -8% | · | -1% | 18%
Cc1ccc(C)c(C(=O)CCC(=O)NNC(=O)c2cccs2)c1 | · | · | -6% | · | 4% | -6% | -6% | 16%
CCc1ccc(OCc2ccc(C(=O)O)o2)cc1 | · | -2% | -82% | · | -3% | ? | · | 2%
CCOC(=O)c1sc(NC(=O)c2cc(CC)on2)c(C(=O)OCC)c1C | -1% | · | -11% | -2.0% | · | 23%[46.1 µM] | 2%[46.1 µM] | ·
O=C(N/N=C1/CC(c2ccccc2)Oc2ccccc21)C1CC1 (stereo not drawn) | ? | 1% | -20% | -0.7% | 18% | 0% | -19% | -7%
COc1nc(-c2ccc(C)cc2)ccc1-c1noc(-c2ccc(C(C)(C)C)cc2)n1 | 5% | · | -18% | -0.6% | · | 18%[46.1 µM] | 5%[46.1 µM] | ·
Cc1ccc([N+](=O)[O-])cc1N(CC(=O)Nc1ccc(S(=O)(=O)Nc2cccc(C(F)(F)F)c2)cc1)S(C)(=O)=O | 4% | 16µM* | ? | -8.1% | 22% | ? | ? | 13%
Cc1ccc(-n2c(-c3ccncc3)nnc2-c2ccco2)cc1 | -2% | -5% | -15% | 0.0% | 0% | -11% | 11% | 0%
COc1ccc(CNC(=O)[C@H](C)NC(=O)N2CCn3c2nc2ccccc23)cc1 | · | -6% | -13% | · | 1% | 1%[46.1 µM] | 0%[46.1 µM] | -7%
Cc1cc2ccccn2c1C(=S)NC(=O)c1ccccc1 | -18% | -3% | 11% | -16% | -23% | 21% | ? | 14%
c1ccc2c(c1)nc(Nc1ccc(N3CCCCC3)cc1)c1nncn12 | · | -4% | -2% | · | 0% | · | · | -2%
Cc1[nH]c2ccccc2c1C(=O)COC(=O)Cn1c(C)nc2ccccc21 | ? | -16% | ? | -3.1% | -3% | ? | -31% | 4%
CCn1c2ccccc2c2cc(CN3CCN(Cc4cc(OC)c(O)c(OC)c4)CC3)ccc21 | 0% | · | -12% | 1.2% | · | -9%[46.1 µM] | · | ·
CCOC(=O)c1ccc(CN(Cc2ccc(Cl)cc2Cl)S(=O)(=O)c2cccc(Cl)c2)cc1 | 16% | · | -21% | 0.5% | · | -4%[46.1 µM] | · | ·
CCCCP(=O)(CCCC)CCP(=O)(c1ccccc1)c1ccccc1 | -3% | -3% | -3% | -1.0% | -8% | -3% | -4% | 3%
Cc1ccc(-n2nc3c(=O)n(C(C)C(=O)O)nc(C)c3c2C)cc1 (stereo not drawn) | -10% | · | -19% | -1.6% | · | -8%[46.1 µM] | 14%[46.1 µM] | ·
CC(=O)Nc1cccc(NC(=O)CCn2cnc3cc(C)c(C)cc32)c1 | -7% | -9% | -14% | -2.3% | 2% | -1% | ? | 0%
Cc1ccc(CSc2nc3ccncc3n2CC(=O)Nc2cc(C)cc(C)c2)cc1 | ? | ? | 37%[activator] | -0.3% | 8% | 6% | ? | -6%
